HSV augment: enhancers of HSV replication in host cells, fold increase, host cell viability; HSV replication augmentation in cells; maximum fold increase; hit rate 0.005% among 220,000; AID 1956, 2009;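 active = peak rise of 1.5-fold or more in the series; inconclusive = self-fluorescent or not available for retest; tested in PC3 cells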;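 also: first round at 10 µM; read as green reporter fluorescence; hits show the peak of a series up to 25 µM; 1 = signal of infected wells without compound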
GALR2 agonist: GALR2 receptor agonists, primary screen, cell-based; Galanin receptor type 2 (Homo sapiens), O43603; GALR2-expressing cells, agonist activation read-out; activation, %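 (tested at 5 µM)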; hit rate 0.48% among 140,000;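 active = above mean plus 3 SD of all compounds, about 5% in these data, not always enough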;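 also: 0% = vehicle buffer wells and 100% = reference agonist at full effect; tested in CHO reporter cells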
RGS16-Gao HTS: modulators of RGS16 binding to Galphao, primary screen, biochemical, human proteins, multiplexed bead flow cytometry. hit rate 0.38% among 220,000. Regulator of G-protein signaling 16 (Homo sapiens) + Guanine nucleotide-binding protein …. binding response (% of control), % at 10 µM. bead-based flow cytometry RGS16-Galphao binding, fluorescence; actives lie on both sides;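 active = below 25% or above 175%, edge rows of some plates excepted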;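 also: Galphao activated by GDP with aluminum fluoride before binding; 100% = wells without compound and 0% = beads without RGS; some results beyond the cut were filed as inactive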
PKD1 kinase inh: inhibitors of human PKD1 kinase, biochemical, fluorescence polarization | Serine/threonine-protein kinase D1 (Homo sapiens), Q15139 | PKD1 kinase fluorescence polarization assay | inhibition, %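 (about 10 µM by stock and volumes)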 | hit rate 0.056% among 200,000 | AID 797, 2007;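 active = inhibition of 50% or more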;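 also: controls were vehicle for no effect and a reference inhibitor for full effect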
Target sequence (Q15139 whole entry, looked up): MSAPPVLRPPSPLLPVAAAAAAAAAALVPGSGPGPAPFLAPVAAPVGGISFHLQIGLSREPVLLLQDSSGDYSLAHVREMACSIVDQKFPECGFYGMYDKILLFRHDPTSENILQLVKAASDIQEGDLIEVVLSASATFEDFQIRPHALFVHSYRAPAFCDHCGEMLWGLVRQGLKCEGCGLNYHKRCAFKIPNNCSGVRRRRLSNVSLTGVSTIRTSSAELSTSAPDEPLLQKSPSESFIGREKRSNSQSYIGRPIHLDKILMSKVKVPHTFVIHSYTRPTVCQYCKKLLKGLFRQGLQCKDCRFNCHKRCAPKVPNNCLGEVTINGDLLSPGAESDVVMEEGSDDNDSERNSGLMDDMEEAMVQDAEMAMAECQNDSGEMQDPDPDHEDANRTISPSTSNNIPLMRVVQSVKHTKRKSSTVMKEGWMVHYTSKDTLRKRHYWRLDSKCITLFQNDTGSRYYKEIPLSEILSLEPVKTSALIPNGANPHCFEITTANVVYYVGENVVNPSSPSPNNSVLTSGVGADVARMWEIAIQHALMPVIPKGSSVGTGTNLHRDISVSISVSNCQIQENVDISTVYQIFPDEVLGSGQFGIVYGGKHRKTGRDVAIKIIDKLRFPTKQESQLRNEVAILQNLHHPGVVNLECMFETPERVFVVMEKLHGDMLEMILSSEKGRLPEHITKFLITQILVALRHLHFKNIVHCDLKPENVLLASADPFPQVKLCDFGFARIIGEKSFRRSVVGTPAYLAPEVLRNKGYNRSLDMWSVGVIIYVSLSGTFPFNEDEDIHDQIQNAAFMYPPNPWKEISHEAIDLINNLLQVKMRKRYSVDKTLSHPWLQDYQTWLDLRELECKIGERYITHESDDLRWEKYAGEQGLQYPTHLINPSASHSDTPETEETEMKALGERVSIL
Insulin prom inh: inhibitors of insulin promoter-driven GFP, primary screen, imaging, TRM-6 cells (human fetal islet line), eGFP reporter, cell count. inhibition, % at 2 µM. hit rate 0.9% among 130,000. AID 1273, 2008. reporter expression induced with tamoxifen;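 active = inhibition above the mean plus 3 SD, with well images judged a real hit on visual review, cut at about 60% in these data, passing the limit was not always enough; inconclusive = inhibition over the cutoff but images rejected on review; inactive = inhibition not above the cutoff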
Insulin prom inh cell count: further read-out of Insulin prom inh, marked with its call; normalized cell count, %; measured here: cell count, toxicity; reference of the scale not given here;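 cells exposed to compound for 48 h; stained nuclei by imaging scaled within each plate; lower means fewer cells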
HSV augment primary fold: further read-out of HSV augment, marked with its call; fold increase; compound at 10 µM; measured here: primary screen fold increase 10 uM; tested in PC3 cells;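 GFP signal in the first replicate; 1 = infected wells without compound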
* = called active by the depositor; i = inactive; ? = inconclusive; nt = not tested or not shown; & = joins results of further samples.

The line under a structure holds: HSV augment, HSV augment primary fold, GALR2 agonist, RGS16-Gao HTS, PKD1 kinase inh, Insulin prom inh, Insulin prom inh cell count
[1] CC(=O)c1ccc(Nc2cc(C)nc3ccccc23)cc1
  i, 0.82, nt, 101, -2, nt, nt
[2] COc1ccc(C(c2c(C)[nH]n(C(N)=S)c2=O)C(C#N)C#N)cc1 (stereo not drawn)
  i, 0.62, -1.1, 99, 4, 19, 108
[3] COc1cc2cc(CN(CCc3ccccc3C)C(=S)NCCCN(C)C)c(=O)[nH]c2cc1OC
  i, 0.61, 0.1, 99, -1, -30, 151
[4] Cc1nonc1CC(=O)N1CCCC(C(=O)c2cccc(C(F)(F)F)c2)C1 (stereo not drawn)
  i, 0.92, nt, 101, -6, nt, nt
[5] C=CCOc1c(Br)cc(CNc2nccs2)cc1OC
  i, 1.1, -0.3, 102, 1, -32, 50
[6] Cc1ccc(Cl)cc1N1CCN(CC(O)COCc2ccco2)CC1 (stereo not drawn)
  i, 1, -1.3, 127, -10, nt, nt
[7] CN(C(=O)c1cccc(C#N)c1)c1nnc(-c2ccccn2)s1
  i, 0.93, -4.3, 99, -10, nt, nt
[8] COc1cccc(C(C(=O)NC2CCCC2)N(Cc2ccccc2OC)C(=O)c2ccco2)c1 (stereo not drawn)
  i, 0.82, -1.4, 104, 5, -214, 84
[9] O=c1c2c3c(sc2ncn1/N=C/c1ccco1)CCCC3
  i, 0.94, 0.0, 97, -8, 20, 112
[10] COc1ccc(NC(=S)NCC2CCCO2)c(OC)c1 (stereo not drawn)
  i, 1, -1.8, 99, 1, -4, 124
[11] CCOC(=O)CN1N=C(/C=C/c2ccc(OC)cc2)CCC1=O
  i, 0.93, -3.3, 99, 3, -143, 98
[12] Cc1c([N+](=O)[O-])c(C(=O)Sc2ccc(Br)cc2)nn1C
  i, 0.97, nt, 102, nt, nt, nt
[13] O=C(Nc1cccc(S(=O)(=O)C(F)F)c1)c1ccc(S(=O)(=O)N2CCCCC2)cc1
  i, 0.95, nt, 100, -5, 56, 119
[14] CCCOc1ccc(C2C(=O)N(C3CCCCC3)CC(=O)N2C2CC2)cc1OC (stereo not drawn)
  i, 0.76, -2.3, 96, -2, -30, 112
[15] COc1cc(S(=O)(=O)N2CCN(Cc3ccc4c(c3)OCO4)CC2)c(C)cc1C
  i, 0.8, -1.6, 105, -7, nt, nt
[16] CC/S(C)=N/S(=O)(=O)c1ccc(C)cc1 (stereo not drawn)
  i, 1.1, -1.6, 75, -10, nt, nt
[17] O=C(N/N=C/c1cc(Br)ccc1O)c1ccncc1
  i, 0.86, nt, 81, nt, nt, nt
[18] O=C(NNC(=S)NC(=O)c1ccccc1[N+](=O)[O-])c1ccccc1[N+](=O)[O-]
  i, 0.96, -1.4, 99, -7, 8, 93
[19] CC1(C)SC(=S)N(NC(=O)Nc2cccc3ccccc23)C1N(O)C(=O)Nc1ccccc1 (stereo not drawn)
  i, 0.81, 1.0, 26, -3, -46, 91
[20] CCCC(=O)Nc1nc2c(C)c(Cl)ccc2s1
  i, 1.1, nt, 96, nt, nt, nt
[21] CCn1cc(-c2cc(C(=O)O)c3ccccc3n2)cn1
  i, 0.95, nt, 98, 3, 0, 130
[22] O=C(/C=C/c1cccc(Br)c1)N1CCN(c2cccc(C(F)(F)F)c2)CC1
  i, 0.86, -0.7, 87, 4, nt, nt
[23] Cc1ccc(CNC(=O)C2CCC(CNc3c(N4CCC(C)CC4)c(=O)c3=O)CC2)cc1 (stereo not drawn)
  i, 1, nt, 103, nt, nt, nt
[24] CCC(CC)NC(=O)Nc1ccc(F)c(Cl)c1
  i, 0.98, nt, 99, 5, 0, 77
[25] O=C(Nc1ccccc1)Nc1nc(-c2ccc(F)cc2)cs1
  i, 0.86, 1.1, 102, -6, 29, 157
[26] O=C1CCN(CCc2ccccc2)CCN1CCSc1ccc(Br)cc1
  i, 0.89, nt, 98, nt, nt, nt
[27] Cc1ccc(F)cc1NC(=O)CN1CCN(c2ccccn2)CC1
  i, 0.9, nt, 112, -5, -3, 80
[28] CCOC(=O)N1CCN(C(=O)CN(c2ccc3c(c2)OCO3)S(C)(=O)=O)CC1
  i, 0.73, 0.6, 102, -6, 79*, 66*
[29] CCOc1ccc2nc(COC(=O)c3cccs3)c(C(=O)c3ccccc3)[n+]([O-])c2c1
  i, 1.2, -0.8, 142, -9, -6, 78
[30] Cc1ccc(NC(=S)N(CCN(C)C)Cc2cccs2)cc1C
  i, 0.84, nt, 96, 0, nt, nt
[31] COc1ccc(C(=O)C2CCCN(C(=O)COc3ccc(C(C)=O)cc3)C2)cc1F (stereo not drawn)
  i, 1, nt, 99, -4, nt, nt
[32] CC1CCN(c2c(NCC3CCC(C(=O)NCCC4=CCCCC4)CC3)c(=O)c2=O)CC1 (stereo not drawn)
  i, 1, nt, 95, nt, nt, nt
[33] CCc1ccc(CNCc2ccc(OCC(O)CN(C)Cc3ccccc3)cc2)nc1 (stereo not drawn)
  i, 0.88, nt, 100, -5, nt, nt
[34] O=C1c2ccccc2C(=O)N1CCCc1nc2ccccc2c(=O)n1CCCn1ccnc1
  i, 1.1, -1.5, 104, -5, -48, 114
[35] C=CCN1C(=O)/C(=c2\sc3nc(=O)c(Cc4ccc(OC)c(OC)c4)nn3c2=O)c2ccccc21
  i, 0.93, nt, 91, nt, nt, nt
[36] O=C(c1cc(COc2c(F)cccc2F)on1)N1CCC(c2ccncc2)CC1
  i, 1.1, nt, 100, 4, nt, nt
[37] C/C(CCc1ccco1)=N\NC(=O)CNc1c(Br)cc(Br)cc1Br
  i, 0.96, nt, 104, -4, nt, nt
[38] Cc1[nH]c2ccccc2c1SCC(=O)N1CCC(C)CC1
  i, 1, nt, 109, -4, -82, 85
[39] CCn1c(Cc2ccccc2)nnc1SCC(=O)Nc1ccccc1
  i, 0.81, -1.9, 107, -9, -82, 99
[40] CCOC(=O)N1CCc2c(sc3[nH]c(=S)[nH]c(=S)c23)C1
  i, 0.98, nt, 98, nt, nt, nt
[41] COc1ccc(/C=N/O)cc1COc1ccc(NC(C)=O)cc1
  i, 0.75, -0.6, 91, -4, 3, 206
[42] Cc1ccccc1OCc1nnc2n1CC(C)S2 (stereo not drawn)
  i, 0.96, -2.8, 103, -1, nt, nt
[43] CCOC(=O)COc1c(OC)cc(Cl)cc1C1Nc2ccccc2C(=O)N1c1ccc(F)cc1 (stereo not drawn)
  i, 0.97, 0.1, 129, -10, 12, 68
[44] O=C(O)c1cccc(NS(=O)(=O)c2ccc(C3CCCCC3)cc2)c1
  i, 0.98, nt, 102, 2, nt, nt
[45] O=C1/C(=C/c2c[nH]c3ccccc23)CCC/C1=C\c1c[nH]c2ccccc12
  ?, nt, -0.8, 100, -17, nt, nt
[46] CCOC(=O)/C(=C\c1cccnc1)C(=O)c1cc(C(C)=O)c(Nc2ccccc2)s1
  i, 0.82, -2.5, 95, -4, -13, 120
[47] Cc1c(NC(=O)COC(=O)C2CC3C=CC2C3)c(=O)n(-c2ccccc2)n1C (stereo not drawn)
  i, 0.98, -1.2, 81, -2, -33, 109
[48] COc1cccc(Oc2nc(-c3ccncc3)nc3ccccc23)c1
  i, 0.91, nt, 109, nt, nt, nt
[49] CCSc1nnc(NC(=O)c2cccc3ccccc23)s1
  i, 1, -2.4, 112, -2, nt, nt
[50] Cc1cccc(N(C(=O)C(F)(F)F)C(C(=O)NC2CCCCC2)c2cccs2)c1 (stereo not drawn)
  i, 0.89, -2.0, 100, -7, -11, 98
[51] CCOC(=O)c1c(NC(=O)Cc2cccs2)sc(C(=O)NC2CCCCC2)c1C
  i, 1.1, -2.1, 100, 8, -153, 148
[52] CNC(=O)c1nc(C)n(-c2ccc([N+](=O)[O-])cc2)n1
  i, 1, nt, 101, -3, nt, nt
[53] O=C(CSc1ccccn1)Nc1ccccc1F
  i, 0.97, -1.9, 105, 4, -21, 92
[54] CCO[C@@H]1OC(C(=O)NCc2ccccc2)=C[C@H](c2ccc(C(F)(F)F)cc2)[C@H]1CCCO
  i, 0.93, nt, 115, 3, nt, nt
[55] Nn1c(SCC(=O)NC(=O)Nc2ccc3c(c2)OCCO3)nnc1C1CC1
  i, 0.98, nt, 206, -4, -9, 63
[56] COc1cccc(NC(=O)C(=S)NC2CCCCC2)c1
  i, 0.99, nt, 103, 1, nt, nt
[57] O=C(NCc1ccoc1)c1ccc(NC(=O)c2ccccc2Cl)cc1
  i, 0.85, -2.4, 96, -10, -4, 67
[58] O=C(NC1CCCCC1)C(Cc1ccccc1)N1C(=O)C2C3CCC(C3)C2C1=O (stereo not drawn)
  i, 1, -2.0, 101, -14, -35, 105
[59] O=C(CCN1C(=O)COc2ccccc21)N1CCN(c2ccccn2)CC1
  i, 0.86, -0.3, 97, 3, -21, 51
[60] O=C(COc1ccc(S(=O)(=O)N2CCCC2)cc1)NCc1ccco1
  i, 0.94, -0.9, -17, 1, -38, 49

Other entries:
The line under a structure holds: HSV augment, HSV augment primary fold, GALR2 agonist, RGS16-Gao HTS, PKD1 kinase inh, Insulin prom inh, Insulin prom inh cell count
[61] CCOC(=O)c1cnn(-c2nc(-c3ccccc3F)cs2)c1C(F)(F)F
  i, 0.91, -0.7, 96, -3, -23, 97
[62] COC(=O)C(C)Sc1ccc2nnc(-c3ccc(F)cc3)n2n1 (stereo not drawn)
  i, 0.96, 0.1, 104, -6, nt, nt
[63] O=C(NCCCN1CCCC1=O)c1ccc2c(c1)OCO2
  i, 1, -1.4, 54, -1, 1, 132
[64] O=C(N/N=C/c1ccccc1[N+](=O)[O-])c1ccc(COc2ccccc2-c2ccccc2)cc1
  i, 0.92, -0.8, 98, -5, nt, nt
[65] CC(C)(C)c1cc[n+](C2=C([O-])c3ccccc3C(=O)/C2=N\S(=O)(=O)c2ccccc2)cc1
  i, 0.93, nt, 99, nt, nt, nt
[66] Cc1ccccc1OCc1nc2ccccc2c(=O)n1/N=C/c1ccco1
  i, 1, -1.2, nt, -3, 17, 187
[67] Cc1cccc(-n2c(N)cc(=O)nc2SCC(=O)NC2CCCCC2)c1
  i, 1.1, -0.3, 99, -5, -26, 130
[68] CCCCc1c(O)nc(SCC(=O)c2ccccc2)[nH]c1=O
  i, 0.98, -0.5, 97, -6, 53, 92
[69] CCOC(=O)c1[nH]c2ccc(F)cc2c1NC(=O)CCN1CCSCC1
  i, 0.98, -1.9, 105, -6, nt, nt
[70] COc1c(C)cc(C(=O)C2CCCN(C(=O)CCCn3cncn3)C2)cc1C (stereo not drawn)
  i, 0.98, nt, 95, nt, nt, nt
[71] N#C/C(=C(/O)c1ccco1)c1nc2ccccc2s1
  i, 1.1&0.65, -0.5, 98&98, 3, nt, nt
[72] CC(C)CCNC(=O)CNC(=S)N(Cc1ccccc1)Cc1cccnc1
  i, 0.97, 0.8, 56, -5, nt, nt
[73] Cc1nc([N+](=O)[O-])c(C(=O)OCc2ccccc2)n1C
  i, 1.1, nt, 102, -7, -65, 140
[74] O=C(Nc1ccc2nc3n(c(=O)c2c1)CCCC3)c1ccccc1[N+](=O)[O-]
  i, 0.94, -0.8, 97, 3, 28, 120
[75] O=C(Oc1ccc(Br)cc1)c1cncc(Br)c1
  i, 0.8, -2.5, 170, -9, 23, 72
[76] COC(=O)c1[nH]c2cc(OC)ccc2c1NC(=O)CCN1CCCC(C)(C)C1
  i, 0.93, -0.1, 115, 6, nt, nt
[77] COc1ccc(CCNC(=O)c2nnn(-c3cc(C)cc(C)c3)c2N)cc1OC
  i, 0.82, -4.0, 97, -2, -17, 177
[78] Cc1noc(C)c1COc1cccc(C(=O)Nc2cccnc2)c1
  i, 0.99, nt, 94, -5, nt, nt
[79] Nn1cc(-c2ccccc2)nc1SCC(=O)NC1CCS(=O)(=O)C1 (stereo not drawn)
  i, 1.1, -0.1, 108, 6, nt, nt
[80] CCCc1cc(C(=O)O)c2ccccc2n1
  i, 0.7, -2.5, 108, 2, -17, 69
[81] CCN1CC(CN(C)Cc2nc(-c3ccc(C(F)(F)F)cc3)oc2C)CC1=O (stereo not drawn)
  i, 0.96, nt, 103, -11, nt, nt
[82] CCCSc1nnc(C(C)C)n1N
  i, 0.97, 0.3, 101, 1, -18, 119
[83] CC1=NN(c2ccccc2)C(=O)/C1=C/C=C/c1ccc(N(C)C)cc1
  i, 0.81, nt, 121, 0, 0, 22
[84] Cc1[nH]c2ccccc2c1C(=O)NS(=O)(=O)Nc1ccc(Cl)cc1
  i, 0.94, nt, 72, 0, 27, 56
